Screens as filed in PubChem.
rRNA inh HTS – inhibitors of bacterial rRNA selective over humanized ribosomes; 350,000 tested, 1.6% active; AID 720706; GFP signal change (wild-type ribosome), % (no concentration beside the values); E. coli WT GFP vs humanized-ribosome RFP mutants, fluorescence, 24 h; active compounds read low; DMSO median 0, no signal -100;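 active = significant combined selectivity score with lowered wild-type GFP, culture density cut under 30%, mutant RFP and density less affected; inactive = any of these conditions unmet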; note: one replicate is shown; some compounds called inactive have numbers as strong as hits
Calb FLC – C. albicans growth modulation with fluconazole; AID 1979; 300,000 tested, 0.57% active; growth inhibition, % (no concentration beside the values); C. albicans CaCi-2 (fluconazole-resistant clinical isolate) + fluconazole, Alamar Blue growth, 48 h;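 active = most replicates above 75%; inconclusive = exactly half above 75%; inactive = most below 75%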;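 note: all wells also contain fluconazole at 8 µg/ml as a sub-toxic cotreatment; 0% = median of DMSO wells and 100% = median of geldanamycin control wells; wells of about 8 µL received 7.5 nL stock; the first replicate is given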
Beta apoptosis – blocks beta cell apoptosis; INS-1E cytokine-induced death, ATP luminescence, 48 h; percent of positive-control rescue, neutral wells zero; 300,000 tested, 0.8% active; AID 435005; protection from apoptosis, % (concentration not given with the values);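 active = all replicates at 75% or more, or half of them and the mean; inconclusive = half reach 75% but not the mean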;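 note: 0% = cytokine-treated negative control wells and 100% = positive control rescue; higher means more ATP so stronger rescue from cytokine killing; wells of about 40 µL received 100 nL stock; the first replicate is given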
T cruzi inh – T. cruzi replication inhibition; T. cruzi beta-gal in NIH3T3, luminescence, 90 h; inhibition, % (test concentration not listed); 300,000 tested, 1.4% active;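 active = mean inhibition across valid replicates above about 55%, limit read from the data; inconclusive = mean below that limit but half or more replicates reach it; inactive = mean below it, under half of replicates reach it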;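 note: signal also drops with host cell toxicity which is not excluded here; 0% = plate median of DMSO wells and 100% = zero luminescence signal; higher percent means less beta-gal luminescence so fewer parasites; stock transfer was 50 nL into about 50 µL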
ALR inh – blocks human ALR sulfhydryl oxidase activity; P55789; purified ALR, DTT oxidation, H2O2 HRP-luminol luminescence; inhibition, % (concentration not given with the values); 290,000 tested, 3.8% active; AID 485317;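 active = mean and each replicate at 75% or more; inconclusive = only one of the two met; inactive = neither met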;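 note: stock transfer was 7.5 nL into about 7.5 µL; 0% = neutral wells and 100% = wells with inactivated enzyme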
B2AR ag – agonists of human beta-2 adrenergic receptor inducing internalization; response, % (concentration not given with the values); 340,000 tested, 0.43% active; P07550; Am2.2-beta2AR cells, FAP receptor internalization, flow cytometry; reference of the scale not given here;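 active = response above a set limit, near 3 SD of response in nonfluorescent compounds, cut at about 42% in these data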;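 note: stock transfer was 100 nL into about 11 µL; a reference agonist was the positive control; negative values mostly stem from fluorescent compounds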
A1 inh – inhibitors of the anti-apoptotic protein A1, read as caspase activation | MEF A1-2A-BIM cells, Caspase-Glo 3/7 luminescence, 3 h; percent of clofoctol response, vehicle zero | caspase activation, % (no concentration beside the values) | 330,000 tested, 0.066% active | AID 2462;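 active = over half of replicate activation scores above 10%, or exactly half above 10 with the replicate mean above 10; inconclusive = replicate mean below 10 yet half the replicates above 10; inactive = over half of replicates below 10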;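 note: wells of about 30 µL received 50 nL stock; many hits fall short of the cut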
LANA-H2B inh – blocks KSHV LANA binding to histone H2A/H2B | cell-free LANA-H2A/H2B peptide, fluorescence polarization | inhibition, % (concentration not given with the values) | 320,000 tested, 0.6% active; in the data active = inhibition mostly above about 10%, no sharp cut-off; inactive = mostly below about 6.7%;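 note: stock transfer was 7.5 nL into about 10 µL; 0% = median of vehicle wells and 100% = median of positive control wells; one replicate is shown; the record names a cut of 25% in any replicate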
Target sequence (Q9QR71 whole entry, looked up): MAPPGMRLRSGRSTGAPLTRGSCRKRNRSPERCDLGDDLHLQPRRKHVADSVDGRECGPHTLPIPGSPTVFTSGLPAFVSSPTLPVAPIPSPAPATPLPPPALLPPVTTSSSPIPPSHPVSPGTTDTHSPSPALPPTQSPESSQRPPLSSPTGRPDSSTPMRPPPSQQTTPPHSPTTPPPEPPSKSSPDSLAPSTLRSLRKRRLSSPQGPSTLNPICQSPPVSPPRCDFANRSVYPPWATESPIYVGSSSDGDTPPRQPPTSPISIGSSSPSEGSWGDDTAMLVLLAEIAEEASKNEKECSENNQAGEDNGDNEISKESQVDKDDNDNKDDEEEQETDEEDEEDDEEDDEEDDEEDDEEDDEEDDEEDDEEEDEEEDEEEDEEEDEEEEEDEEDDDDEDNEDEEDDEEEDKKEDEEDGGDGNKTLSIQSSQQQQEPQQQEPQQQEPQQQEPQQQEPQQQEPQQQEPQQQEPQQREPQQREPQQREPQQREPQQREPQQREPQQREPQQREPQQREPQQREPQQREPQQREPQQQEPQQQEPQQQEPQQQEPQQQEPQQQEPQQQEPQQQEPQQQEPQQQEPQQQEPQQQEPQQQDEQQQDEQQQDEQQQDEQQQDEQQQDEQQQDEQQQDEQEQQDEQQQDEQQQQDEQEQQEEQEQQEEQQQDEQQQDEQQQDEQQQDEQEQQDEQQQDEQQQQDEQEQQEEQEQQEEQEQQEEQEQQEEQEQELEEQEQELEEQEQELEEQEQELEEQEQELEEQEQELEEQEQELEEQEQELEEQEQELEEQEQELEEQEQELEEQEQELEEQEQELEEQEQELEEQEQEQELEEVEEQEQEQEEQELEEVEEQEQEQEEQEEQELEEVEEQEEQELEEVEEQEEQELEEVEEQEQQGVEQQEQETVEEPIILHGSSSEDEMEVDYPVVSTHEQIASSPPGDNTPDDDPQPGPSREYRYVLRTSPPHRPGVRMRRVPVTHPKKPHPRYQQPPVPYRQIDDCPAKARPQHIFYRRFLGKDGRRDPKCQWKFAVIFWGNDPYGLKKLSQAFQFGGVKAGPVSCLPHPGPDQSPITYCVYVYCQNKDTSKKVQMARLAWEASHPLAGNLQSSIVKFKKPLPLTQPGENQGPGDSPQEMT
rRNA inh HTS OD600 – also measured in rRNA inh HTS; calls as there; OD600 change, %; measured here: OD600 growth;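 optical density of the mix in the first replicate; 0 = DMSO median and -100 = no signal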
rRNA inh HTS RFP – also measured in rRNA inh HTS; calls as there; RFP signal change, %; measured here: RFP humanized mutant strains;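 first replicate; 0 = DMSO median and -100 = no signal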
An asterisk follows results filed as active; ? = inconclusive; · = not tested or not shown. Only part of the results is shown. The share of hits here may be higher or lower than overall.

SMILES	rRNA inh HTS	rRNA inh HTS OD600	rRNA inh HTS RFP	Calb FLC	Beta apoptosis	T cruzi inh	ALR inh	B2AR ag	A1 inh	LANA-H2B inh
CC(Sc1nc(N)cc(N)n1)C(=O)NCCC1=CCCCC1 (centres undefined)	-2	-5	1.5	·	-2	·	3	8	-1.1	-2.6
CN(C)N1C(N)=C(C#N)C(c2ccsc2)C2=C1CCCC2=O (centres undefined)	·	·	·	6	-2	-7	-12	-4	0.8	-6.5
O=C(CSc1ncnc2ccccc12)Nc1cccc(S(=O)(=O)N2CCOCC2)c1	-9	-20	0.6	-13	-11	7	98*	-2	-0.2	5.6
CN(CC(=O)Nc1ccc(Cl)c(C(F)(F)F)c1)C(=O)CCCNC(=O)c1ccc(Cl)cc1	-54	-78	-14	·	4	·	1	11	0.1	-0.1
Cc1ccc2nc(-c3sc4nc(C)cc(C)c4c3N)[nH]c2c1	·	·	·	17	6	26	36	-4	-0.7	-1.4
COc1ccc(/C=C/c2nc(N)nc(-c3ccccc3O)n2)cc1OC	5	14	1.1	1	17	67*	-7	21	-0.2	-1.9
N=c1sccn1CC(=O)Nc1cccc(Oc2ccccc2)c1	13	-10	4.9	-5	3	18	6	10	0.1	-0.9
Cc1cc(-c2ccc(C)c(S(=O)(=O)NCCc3ccc(S(N)(=O)=O)cc3)c2)on1	0	-22	0.2	28	1	3	-1	-9	1.4	2.9
CCc1cc(C(=O)c2ccccc2OC)c(N)s1	·	·	·	9	-3	23	93*	6	0.1	0.4
Cc1ccc(CC(NC(=O)c2ccccc2)C(=O)NC(C)C(=O)O)cc1 (centres undefined)	·	·	·	-6	-6	0	-4	13	0.1	6.3
COc1ccc(C(=O)Nc2cccc(NC(=O)c3ccc(OC)cc3OC)n2)c(OC)c1	7	6	0.9	-13	6	14	-6	9	1.3	-3.9
Cn1c(-c2cccs2)[n+](C)c2ccccc21	29	18	1.3	25	-10	-4	-21	11	1.1	2.9
Cc1cc(=O)oc2cc(OCCSCCN3CCCC3)ccc12	7	-4	9.9	13	2	9	98*	0	1.0	0.0
CCN(c1ccc(C)cc1C)S(=O)(=O)c1nnc(NC(=O)C(C)(C)C)s1	-5	0	0.3	-4	-5	-7	0	2	0.2	-1.0
CS(=O)(=O)c1ccc(-c2sc3ccccc3c2C(=O)N2CCN(c3ccc(F)cc3)CC2)cc1	3	1	-4.2	·	-3	·	-1	-2	-13	-2.4
O=[N+]([O-])c1cc(Cl)c(Cl)c(Cl)c1Cl	3	-1	-1.2	·	-3	·	-6	-6	0.5	13
N/C(=N\OC(=O)CCC1CCCC1)c1ccc(Cl)cc1	1	11	-2.4	·	-10	-5	0	-1	-0.2	-1.3
O=C(c1ccco1)N1CCN(Cc2cc(=O)c(OCc3cccc(Cl)c3)co2)CC1	-4	-4	-3.2	3	1	12	-11	-11	-2.9	-5.3
CCC(=O)N/N=C/c1ccc(-c2ccc(Cl)cc2)o1	-3	9	13	2	-3	12	30	6	-0.4	1.8
O=C(NCC1COc2ccccc2O1)c1ccc(NC(=O)c2ccco2)cc1 (centres undefined)	·	·	·	-7	5	8	·	-8	0.5	-5.1
Cn1nc(C(F)(F)F)c(C(=O)Nc2cccc(C(F)(F)F)c2)c1SCc1ccc(Cl)cc1	·	·	·	6	45	29	-19	5	0.1	3.3
COc1ccc(Cl)cc1N1C(=O)C2CCCN2C1c1ccc(F)c(F)c1 (centres undefined)	3	3	-1.7	-2	0	-5	-9	1	-0.5	2.9
CCCCCCCC1CC(CSc2ncn[nH]2)OC1=O (centres undefined)	·	·	·	3	1	-21	-4	16	0.3	-3.8
COc1ccc2c(c1)cc1c(=O)n(CC(=O)NCCCOC(C)C)nc(C)n12	11	19	0.7	1	0	-13	-1	0	0.4	0.2
C=CCn1c(CCNC(=O)c2ccccc2F)nnc1SCC(=O)Nc1ccc(OC)cc1	-1	-1	2.9	4	1	-10	-3	-3	-1.0	-5.7
(next part)
SMILES	rRNA inh HTS	rRNA inh HTS OD600	rRNA inh HTS RFP	Calb FLC	Beta apoptosis	T cruzi inh	ALR inh	B2AR ag	A1 inh	LANA-H2B inh
CCC(C)(C)NC(=O)C(c1ccccc1F)N(C(=O)c1ccn[nH]1)c1ccccc1 (centres undefined)	·	·	·	5	2	4	-6	-1	-0.2	-3.2
COc1ccc(C(c2sc3nc(C)nn3c2O)N2CCC(C(N)=O)CC2)cc1OC (centres undefined)	13	6	-0.2	-5	-1	-9	6	-1	0.0	0.1
CCCCn1c(=N)n(CC(=O)c2ccc(Br)s2)c2ccccc21	-20	-28	16	3	83*	15	·	82*	0.2	-1.0
C(=N\N1CCN(c2ccccc2)CC1)/c1ccccc1	15	6	-1.4	0	-1	-2	1	0	-2.2	0.2
CCCNS(=O)(=O)c1cc2c3c(c1)C(C)C(=O)N3CCC2 (centres undefined)	1	-7	-1.6	-2	-8	3	-35	0	0.9	12
O=C1c2ccc(Oc3ccc4c(c3)C(=O)N(CCCO)C4=O)cc2C(=O)N1CCCO	·	·	·	1	2	-10	-9	13	0.2	3.1
O=C(CNC(=O)c1cccs1)OCC(=O)c1ccccc1Cl	6	14	0.8	-9	-1	·	·	-8	0.9	-14
CC(C)N(Cc1nccn1C)C(=O)c1ccc2oc(CCCc3ccccc3)nc2c1	-6	-7	1.0	9	-2	13	-9	7	-0.1	-3.6
CCN(CC(=O)NC(C)C)Cc1nc2c(Br)cc(Br)cc2c(=O)[nH]1	-8	-3	16	0	5	1	0	0	0.6	1.1
Cc1cc(C)c(C#N)c(SCC(=O)c2cccs2)n1	·	·	·	-43	5	53	12	0	1.1	2.1
Cc1cc2oc(C(=O)Nc3c(C)n(C)n(-c4ccccc4)c3=O)c(C)c2cc1C	·	·	·	14	-4	8	4	-2	-0.9	-9.0
c1ccc(CCNc2nc(-c3ccccn3)cs2)cc1	·	·	·	-20	43	7	·	1	-7.4	0.6
O=C(CC1Sc2ccccc2NC1=O)Nc1ccccc1[N+](=O)[O-] (centres undefined)	3	9	0.4	-3	-8	4	-9	-7	0.8	1.7
COc1ccc(C2C(C(=O)N3CCN(c4ccc(OC)cc4)CC3)c3ccccc3C(=O)N2C)cc1 (centres undefined)	·	·	·	-4	0	-8	15	-8	-0.2	4.4
COc1ccccc1C/C(N)=N/OC(=O)/C=C/c1ccccc1	-12	-19	-0.3	37	-8	10	2	-1	0.9	0.0
Cc1ccc([C@@H]2[C@@H]3C(=O)N(c4ccccc4)C(=O)[C@@H]3[C@]3(C)C(=O)N(CC4CC4)CC(=O)N23)o1	8	13	3.0	-3	-4	-13	·	-9	-0.3	5.7
CCN(CC)CCCn1c2c(c(SCC(=O)Nc3ccc(C)c(F)c3)nc1=O)CCC2	3	7	0.6	-12	-11	0	97*	-3	-0.5	4.5
CCOC(=O)/C(=N/O)C1=NC(C)(C)Cc2cc(C)c(C)cc21	-23	-22	-1.2	?	-2	-9	-10	-2	1.2	2.4
CC(=O)Nc1ccc(NC(=O)C(C)Oc2ccc(Cl)cc2Cl)cc1 (centres undefined)	2	11	0.4	-57	-4	4	-3	-5	-0.3	3.3
NS(=O)(=O)c1ccc(N=C2C(=O)Nc3ccccc32)cc1	-1	4	-1.3	-4	·	-1	75	6	-0.1	-0.7
COc1ccc(C)cc1S(=O)(=O)N(CC(=O)Nc1cccc([N+](=O)[O-])c1)c1ccc(C)c(C)c1	1	-17	-6.1	13	8	30	0	-3	0.2	5.7
CCCCCN1CC(=O)N2C(C)c3[nH]c4ccccc4c3C[C@H]2C1=O (some centres undefined)	-8	-14	-4.4	-3	0	18	-2	9	-0.9	0.7
O=C(N/N=C/c1ccc2c(c1)OCO2)c1ccc(NC(=O)c2ccccc2Cl)cc1	3	2	-2.7	3	10	2	-3	5	0.1	-1.2
O=C(c1ccco1)N1CCCC(N2CCN(c3cccc(C(F)(F)F)c3)CC2)C1 (centres undefined)	-8	-27	-5.5	-6	-3	9	3	-1	-0.3	-2.5
Cc1ccc(S(=O)(=O)N(C)C)cc1NC(=O)COC(=O)/C=C/c1cnc2ccccc2n1	10	7	23	5	-4	-8	7	-6	0.5	-0.7

3 records drawn at random from those above, as already listed:
SMILES	rRNA inh HTS	rRNA inh HTS OD600	rRNA inh HTS RFP	Calb FLC	Beta apoptosis	T cruzi inh	ALR inh	B2AR ag	A1 inh	LANA-H2B inh
Cn1c(-c2cccs2)[n+](C)c2ccccc21	29	18	1.3	25	-10	-4	-21	11	1.1	2.9
CCOC(=O)/C(=N/O)C1=NC(C)(C)Cc2cc(C)c(C)cc21	-23	-22	-1.2	?	-2	-9	-10	-2	1.2	2.4
N=c1sccn1CC(=O)Nc1cccc(Oc2ccccc2)c1	13	-10	4.9	-5	3	18	6	10	0.1	-0.9

More entries
SMILES	rRNA inh HTS	rRNA inh HTS OD600	rRNA inh HTS RFP	Calb FLC	Beta apoptosis	T cruzi inh	ALR inh	B2AR ag	A1 inh	LANA-H2B inh
CCCNC(=S)Nc1ccc(Br)cc1	·	·	·	1	·	-2	·	2	-0.7	-3.3
C/C(=N\NC(=O)c1ccc2c(c1)OCO2)c1ccc(NC(=O)CCCC(=O)O)cc1	21	13	3.2	-24	-4	-6	-14	6	0.5	2.6
CC(=O)c1c(C)nn(C(C)CC(=O)O)c1C (centres undefined)	·	·	·	-4	-1	-5	-8	4	-0.1	-4.0
Cc1ccc(-c2nnc(SCC(=O)NCCN3C(=O)CSC3=O)n2C)cc1	3	1	-4.5	·	0	·	22	8	0.5	3.5
COc1cc(NS(=O)(=O)c2cc(C)ccc2OC)c(OC)cc1Cl	·	·	·	-4	8	5	-1	2	-0.4	-0.2
CCOc1ccc(N2CC(NS(=O)(=O)c3cccs3)CC2=O)cc1 (centres undefined)	6	5	1.0	1	-4	-2	·	-5	-0.4	-3.6
S=c1cnc2ccccc2[nH]1	7	6	1.2	-15	12	7	-25	-10	1.6	-2.6
CCCNC(=O)CN(c1ccccc1)S(=O)(=O)c1ccc(OC)c(OC)c1	·	·	·	-1	1	-3	-15	2	-1.6	-4.5
CCN(CC)S(=O)(=O)c1ccc(Cl)c(C(=O)NC(C)C(c2cccs2)N2CCCC2)c1 (centres undefined)	-5	-10	-1.0	-4	-4	5	-16	-4	-0.4	-0.7
Nc1cc(Nc2ccccc2)ccn1	0	-2	0.0	·	-1	·	11	-10	-0.3	1.3
COc1ccc(-c2c(C)nn3c(-c4ccccc4)cc(C)nc23)cc1	-4	10	-0.5	-2	16	15	-10	5	·	-6.1
Cc1ccccc1NC(=S)Nc1ccccn1	13	7	0.3	-6	3	-13	-1	-12	0.4	1.6
O=C(CNC(=O)c1ccccc1)N/N=C/c1cccs1	9	5	-0.2	11	-2	-8	-5	2	-0.1	-3.0
O=C(O)CCCC(=O)NCCCc1ccccc1	·	·	·	-15	1	-19	-14	3	?	0.9
COc1ccc(S(=O)(=O)Nc2ccccc2OC)cc1C	·	·	·	15	·	5	-3	-3	0.1	1.4
CCOc1cccc(OCCCOc2cccc3cccnc23)c1	·	·	·	-4	-1	-7	-19	-8	-1.3	1.8
